Compound activity: PubChem, National Center for Advancing Translational Sciences (NCATS)
StopGo FLuc – lowers the firefly signal of an FMDV 2A StopGo reporter; 0.23% of 120,000 active; AID 1745856; HEK cells with a luciferase reporter of 2A StopGo recoding; Potency, µM (top dose mostly 57.5 µM), for inactives: top-dose signal change, negative = less light; active = well fitted falling curve with a large enough effect; inconclusive = small, poorly fitted or top-dose-only effect; inactive = no such curve, though single readings can be large or run the other way; also: nearly all actives have a fitted effect of over 60% in size; overnight with compound
2A Renilla – FMDV 2A StopGo reporter, Renilla signal | HEK cells with a luciferase reporter of 2A StopGo recoding | Potency, µM (highest dose often 57.5 µM), for inactives: at the top dose signal change, negative = less light | 0.32% of 120,000 active | AID 1745857; active means well fitted falling curve with a large enough effect; inconclusive means small, poorly fitted or top-dose-only effect; inactive means no such curve, though single readings can be large or run the other way; also: nearly all actives have a fitted effect of over 55% in size; overnight with compound
* = called active by the depositor; ? = inconclusive; [ ] = another dose, or the depositor's remark. % is scaled to controls: 0 for no effect and ±100 for the full control effect; potency is read from the fitted curve at half-maximal effect.

Results follow in this order: 2A Renilla, StopGo FLuc
1. O=C(Nc1ccc(Cl)cc1F)C12CC3CC(CC(C3)C1)C2
 : 4%, 17%
2. CCOC(=O)C1=C(CNCc2ccccc2)NC(=O)NC1c1ccc(C)cc1 (stereo not given)
 : 3%, 1%
3. COc1ccc(C(=O)N2CCCCC2CCN2CCCCC2)cc1 (stereo not given)
 : -6%, -13%
4. CCOc1ccc(CCNC(=O)CS(=O)(=O)Cc2nc(-c3ccc(C)cc3)oc2C)cc1
 : 18%, 20%
5. COC(=O)c1ccc(NC(=O)C(=O)NCCc2csc(-c3ccc(C(F)(F)F)cc3)n2)cc1
 : -3%, -14%
6. CC(C)CCn1nnc2sc(-c3ccccc3)cc2c1=O
 : -5%, 33%[activator]
7. Cc1cccc(N2CC(O)=C(c3nc4ccccc4n3C)C2=N)c1C
 : -1%, 28%
8. CCCCN(CC)CCNC(=O)c1cc2c(=O)oc3ccc(C)cc3c2s1
 : -14%, -37%
9. O=C(NC1CCCC1)c1cnn2c(C(F)(F)F)cc(-c3ccco3)nc12
 : 22%, -5%
10. CN(C)S(=O)(=O)c1ccc2c(c1)cc(C(=O)NCC1CCCO1)n2C (stereo not given)
 : 19%, 0%
11. Cc1cc2c(cc1S(=O)(=O)N1CCC(C(=O)N3CCN(C)CC3)CC1)OC(C)C(=O)N2 (stereo not given)
 : 2%, -10%
12. CCCCN(CC)CCNC(=O)CCn1cnc2onc(-c3ccc(F)cc3)c2c1=O
 : -15%, -14%
13. COc1ccc(NC(=O)CSc2nc(-c3ccc(OC)cc3)cc(=O)[nH]2)cc1
 : 1%, 2%
14. Cc1nc(CC(=O)Nc2cc(Cl)ccc2C)cs1
 : -12%, -15%
15. O=C(Cn1c(=O)n(-c2ccccc2Cl)c(=O)c2sc3ccccc3c21)NC1CCCC1
 : 3%, 216%[activator]
16. CC(C)(C)c1ccc(C(=O)NCC(c2ccco2)S(=O)(=O)c2ccccc2)cc1 (stereo not given)
 : 2%, -9%
17. CC(C)n1nc(C(=O)Nc2cc(C(F)(F)F)ccc2N2CCOCC2)c2ccccc2c1=O
 : -2%, -3%
18. COc1ccc(NC(=O)CSc2nc(Cl)nc3nc[nH]c23)cc1OC
 : 22%, 10%
19. CC1CCN(c2nc3ccc(C(=O)NCCc4ccc(S(N)(=O)=O)cc4)cc3s2)CC1
 : -2%, -29%
20. COc1ccc(OC)c(C(=O)OCc2nc(N)c3ccccc3n2)c1
 : 148%[activator], 93%[activator]
21. Cc1ccc(C(=O)Cn2nc(Cl)nc2Cl)cc1
 : -16%, 1%
22. Cc1ccc2oc(-c3cccc(NC(=O)Cc4ccc(Cl)cc4)c3)nc2c1
 : -3%, 4%
23. Cc1ccc(C)c(N2CCN(c3nc4ccccc4c(=O)n3-c3ccc(Cl)cc3)CC2)c1
 : -13%, -13%
24. FC(F)(F)c1cccc(C2=CCN(CCc3ccc4ccccc4c3)CC2)c1
 : -11%, -19%[11.5 µM]
25. O=S1(=O)N(Cc2ccccc2)CCCN1Cc1cccc(Cl)c1
 : 98%[activator], 1%
26. O=C(Nc1cccc(O)c1)c1cc2nc(-c3ccc(Br)cc3)cc(C(F)(F)F)n2n1
 : -6%, ?
27. COc1ccc(NC(=O)Cc2c(C)c3ccc(OC)c(C)c3oc2=O)cc1
 : -5%, 73%[activator]
28. Cc1cc(C)cc(CC(CC(=O)O)C(=O)Nc2cccc(C(F)(F)F)c2)c1 (stereo not given)
 : -2%, 4%
29. Fc1cccc(Cl)c1Cn1c(-c2cccs2)nc2ccccc21
 : -11%, ?
30. CCCCn1c(=O)[nH]c(=O)c2c1nc(COC(=O)c1cc(C)ccc1C)n2CCC
 : -5%, -2%
31. CCCNc1c(NS(=O)(=O)c2ccc(OCC)cc2)c(=O)oc2ccccc12
 : 2%, 6%
32. CCc1ccc(S(=O)(=O)NCCc2coc(-c3ccccc3)n2)cc1
 : 127%[activator], -10%
33. CC(NC(=O)C(C)(C)C)C(=O)NCC1CC1 (stereo not given)
 : -8%, 3%
34. CCOc1cc(C(=O)Nc2ccc(NC(=O)c3cc4ccccc4o3)c(OC)c2)cc(OCC)c1OCC
 : -2%, 7%
35. COc1ccc(/C=C/C(=O)c2ccc(O)c(CCCl)c2)cc1C
 : 5%, 130%[activator]
36. Nc1nnnn1Cc1nnc(SCc2ccc(Cl)c(Cl)c2)n1-c1ccccc1
 : 149%[activator], 67%[activator]
37. O=C(NNC(=O)C1(c2ccc(Br)cc2)CCCC1)c1ccccc1
 : -11%, -20%
38. CCC12CN3CC(CC)(CN(C1)C(=O)c1ccccc1C3=O)C2=O
 : 7%, -9%
39. CCc1nc2ccc(C(=O)NCc3ccc(SC)cc3)cc2nc1CC
 : 0%, 90%[activator]
40. O=C(NC1CC(=O)N(c2cccc(F)c2)C1)c1cccs1 (stereo not given)
 : -4%, -13%
41. O=S(=O)(NCCc1ccc(F)cc1)c1ccc2c(c1)CCCC2
 : 204%[activator], 1%
42. CN(C)c1nc(Oc2ccc(=O)n(C)n2)nc(N2CCOCC2)n1
 : 24%, 16%
43. CCC(Sc1nc2ccccc2c2nc(CCn3c(C)nc4ccccc43)nn12)C(=O)Nc1ccc(F)cc1 (stereo not given)
 : -17%, -17%
44. COc1ccc(S(=O)(=O)NC2(C(F)(F)F)NC(=O)N(CCc3ccccc3)C2=O)cc1 (stereo not given)
 : 3%, 0%
45. COC(=O)CC(NC(=O)CCc1cc(OC)ccc1OC)c1cccs1 (stereo not given)
 : 5%, 13%
46. CC(=O)Nc1cccc(C(=O)OCC(=O)c2ccc[nH]2)c1
 : -7%, 128%[activator]
47. CC(Sc1oc(-c2cccs2)nc1S(=O)(=O)c1ccccc1)c1ccccc1 (stereo not given)
 : 282%[activator], 109%[activator]
48. N#Cc1c(N2CCN(CC(=O)Nc3cccc(Cl)c3)CC2)nc(-c2ccco2)c2c1CCC2
 : -19%, -27%
49. CCN(CC)C(=O)c1cccc(C)c1
 : -6%, -7%[11.5 µM]
50. O=C(/C=C/c1ccc(O)c(O)c1)O[C@@H]1C[C@@](OC(=O)/C=C/c2ccc(O)c(O)c2)(C(=O)O)C[C@@H](O)[C@@H]1O
 : -5%, -7%[11.5 µM]

(more compounds)
Results follow in this order: 2A Renilla, StopGo FLuc
51. COC(=O)[C@H](CC(C)C)N(Cc1cn(Cc2ccc(C)cc2)nn1)S(=O)(=O)c1ccccc1Br
 : 43%[activator], -23%
52. CCCCCCCCCCC[C@@H](C[C@@H]1OC(=O)[C@H]1CCCCCC)OC(=O)[C@H](CC(C)C)NC=O
 : 7%, 4%[11.5 µM]
53. CCc1ccc(S(=O)(=O)Nc2cc(-c3cn4ccccc4n3)ccc2C)cc1
 : 310%[activator], 56%[activator]
54. CCCCCCNC(=S)NNC(=O)c1cc(-c2ccccc2)nc2ccccc12
 : 13%, 10%
55. CC(C)CNC(=O)NC(=O)CNC(C(=O)N(C)C)c1ccccc1 (stereo not given)
 : 2%, 1%
56. CC(C)c1ccc(CCC(=O)Nc2cccnc2)cc1
 : 1%, 163%[activator]
57. COc1cc(C(=O)N2CCN(c3ccc(Nc4ccccc4)nn3)CC2)cc(OC)c1OC
 : 2%, -11%
58. CCC1CN(C(=O)NCc2cccc(OC)c2)c2ccccc2O1 (stereo not given)
 : -5%, -15%
59. O=C(COc1ccc([N+](=O)[O-])cc1)Nc1cccc2cccnc12
 : 16%, 28%
60. CC(C(=O)N1CCOCC1)n1ccc2cc(S(=O)(=O)N3CCCCCC3)ccc21 (stereo not given)
 : 30%, -9%
61. N#Cc1nc(-c2cccs2)oc1NCCc1ccccc1
 : 124%[activator], 166%[activator]
62. O=C(O)c1nnn(-c2ccc(Br)cc2)c1C(F)(F)F
 : 8%, 12%
63. CNC(=O)c1ccc(CNCc2ccco2)cc1
 : -3%, 16%
64. O=c1[nH]c(=O)n(Cc2cccnc2)c2c1CN(Cc1ccccc1)CN2
 : -9%, -6%
65. CCOC(=O)c1ccccc1NC(=O)CSc1nc2ncccc2[nH]1
 : -4%, -13%
66. CCOC(=O)c1[nH]c(C)c(CCC(=O)N2CCC(C(=O)NCCN(C)C3CCCCC3)CC2)c1C
 : 0%, -5%
67. COc1ccc(OC)c(C2C(C(N)=O)=C(C)Nc3nc(-c4cccc(Cl)c4)nn32)c1 (stereo not given)
 : 115%[activator], 68%[activator]
68. Cc1ccccc1Cn1c2ccccc2c2cnn(CC(=O)NCc3ccccn3)c(=O)c21
 : -15%, -20%
69. CCc1ccc(C(=O)Nc2ccccc2O)o1
 : 13%, 147%[activator]
70. COc1ccccc1N1CCN(C(=O)C2=CC(c3ccc(F)cc3)=NS(=O)(=O)N2C)CC1
 : -8%, -7%
71. Cc1ccccc1NC(=O)Nc1ccc2nc(N3CCOCC3)cc(C)c2c1
 : 12%, 8%
72. Cn1c(SCC(=O)Nc2cccc(F)c2)nc2c(c1=O)SCC2
 : -17%, -19%
73. Cc1ccc(C(NC(=O)Cn2nc(C)c3ccccc3c2=O)C2CC2)cc1 (stereo not given)
 : 0%, -5%
74. COC(=O)c1ccccc1NC(=O)Cn1cc(S(=O)(=O)Cc2ccccc2F)c2ccccc21
 : -12%, 21%
75. Cc1ccc(C)c(-n2cccc2C=O)c1
 : 1%, 1%
76. CCOc1cc(/C=C2/NC(=O)NC2=O)cc(Br)c1OCC(=O)O
 : 3%, 4%
77. CCOC(=O)c1c(-c2ccc(OC)c(OC)c2)csc1NC(=O)c1ccc(F)cc1
 : -7%, -16%
78. CCCOc1ccc(C2C(=O)N(C3CCCCC3)CC(=O)N2C2CCCCC2)cc1OC (stereo not given)
 : -5%, 7%
79. Cc1cccc(C)c1OC(=O)CSc1nnc(CNC(=O)c2ccccc2)o1
 : -1%, 9%
80. Cc1cccc(C)c1NC(=O)CN(C)C(=O)c1nc(-c2ccccc2)oc1C
 : 5%, 13%
81. CN(Cc1ccco1)C(=O)CCc1ncc(-c2c(F)cccc2F)o1
 : 42%[activator], 22%
82. O=C(COC(=O)CCc1nc2ccccc2s1)Nc1ccc(Cl)cc1C(=O)c1ccccc1
 : 1%, 5%
83. O=C(CSc1ncnc2ccccc12)Nc1cccc(C(F)(F)F)c1
 : -8%, 4%
84. c1ccc(-c2cc(-c3ccccc3)nc(-c3ccccc3)c2)cc1
 : 8%, 1%
85. O=C(c1ccc2c(c1)OCCO2)N(Cc1cccnc1)c1nc2ccc(F)cc2s1
 : -13%, 28%
86. COc1ccc(-c2[nH]c(-c3ccc(O)cc3)nc2-c2ccccc2)cc1
 : -23%, -10%
87. COc1cc2c(cc1OC)-c1c(c(C(=O)NCCN(C)C)nn1-c1ccc(C)cc1)C2
 : -10%, -17%
88. COC(=O)CCCNC(=O)CN1CCCCC1C (stereo not given)
 : -3%, 4%
89. O=c1[nH]c2ccc(NCc3ccc(-c4ccccc4F)o3)cc2[nH]1
 : -17%, 15%
90. O=[N+]([O-])c1ccc(F)cc1OCc1cc(Cl)c2c(c1)OCCO2
 : 2%, 139%[activator]
91. CC(C)CN(C(=O)CSc1ccc2ccccc2n1)C1CCS(=O)(=O)C1 (stereo not given)
 : -3%, 38%[activator]
92. CC(=O)Nc1ccc(CNC(=O)C2CCC(C(C)(C)C)CC2)cc1 (stereo not given)
 : 14%, 1%
93. NS(=O)(=O)c1ccc(CCC(=O)Nc2nc3c(s2)CCCC3)cc1
 : -2%, 24%
94. NC(=O)CN1C(=O)C(O)(CC(=O)c2ccc3c(c2)OCO3)c2ccccc21 (stereo not given)
 : 0%, 11%
95. O=C(NCc1ccccc1Br)c1cnc2sc(N3CCCCCC3)nn2c1=O
 : -8%, -2%
96. O=C(Nc1ccc(O)c(-c2nc3ccccc3o2)c1)c1ccc(F)cc1
 : -2%, -4%
97. COc1ccc(N2CC(NC(=O)CCc3ccccc3)CC2=O)cc1OC (stereo not given)
 : -8%, -13%
98. CCOc1ccc2c(c1)NC(c1ccc(OCC)c(OCC)c1)=NC(c1ccc(F)cc1)=N2
 : 314%[activator], 77%[activator]
99. O=C(O)C(c1c[nH]c2cc(Cl)ccc12)N1CCCN(c2ccc(C(F)(F)F)cn2)CC1 (stereo not given)
 : -15%, -15%
100. Cc1ccccc1C(C)NC(=O)c1cc(Cl)c[nH]1 (stereo not given)
 : -8%[1.06 µM], -5%

The listing continues:
Results follow in this order: 2A Renilla, StopGo FLuc
101. CCOC(=O)c1cc(-c2ccccc2)n(CCCC(=O)Nc2ccc(C)c(Cl)c2)c1C
 : -10%, -16%
102. COc1ccc(-c2cn3nc(N4CCCC(C(=O)NCc5ccccn5)C4)sc3n2)cc1 (stereo not given)
 : ?, -31%
103. Cc1ccc(C(C)C)c(OCC(=O)Nc2ccc3oc(-c4ccncc4)nc3c2)c1
 : -8%, 5%
104. CSc1nc(C(C)C)nc(C)c1C(=O)Nc1cccc(Br)c1
 : -10%, -6%

Not all compounds are listed, so the mix of outcomes need not match the whole.
